# Ecoli rRNA inh – reduced GFP signal of wild-type E. coli, primary screen, bacterial rRNA inhibitor project, GFP/RFP fluorescence, OD600, single point. AID 720706, 2013. 350,000 compounds, 1.6% hits. GFP signal change (wild-type ribosome), % (concentration not given with the values). E. coli WT GFP vs humanized-ribosome RFP mutants, 24 h; active compounds read low; DMSO median 0, no signal -100;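 active = significant combined selectivity score with lowered wild-type GFP, culture density cut under 30%, mutant RFP and density less affected; inactive = any of these conditions unmet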; also: one replicate is shown; some compounds called inactive have numbers as strong as hits
# AF4-AF9 inh – inhibitors of AF4 peptide binding to AF9, primary screen, biochemical, AlphaScreen, biotin-AF4 peptide, FLAG-AF9, single point | Protein AF-9 (Homo sapiens), P42568 | inhibition, % at 10 µM | 350,000 compounds, 0.47% hits;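 active = every replicate reaching a set inhibition limit, whatever the replicate mean, cut at about 25% in these data; inconclusive = mean inhibition reaches that limit but some replicates miss it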;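 also: 0% = plate neutral control median and 100% = total signal loss; the record names both 10 and 1 µM as test concentration; the first replicate is given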
# Target sequence (P42568 whole entry, looked up): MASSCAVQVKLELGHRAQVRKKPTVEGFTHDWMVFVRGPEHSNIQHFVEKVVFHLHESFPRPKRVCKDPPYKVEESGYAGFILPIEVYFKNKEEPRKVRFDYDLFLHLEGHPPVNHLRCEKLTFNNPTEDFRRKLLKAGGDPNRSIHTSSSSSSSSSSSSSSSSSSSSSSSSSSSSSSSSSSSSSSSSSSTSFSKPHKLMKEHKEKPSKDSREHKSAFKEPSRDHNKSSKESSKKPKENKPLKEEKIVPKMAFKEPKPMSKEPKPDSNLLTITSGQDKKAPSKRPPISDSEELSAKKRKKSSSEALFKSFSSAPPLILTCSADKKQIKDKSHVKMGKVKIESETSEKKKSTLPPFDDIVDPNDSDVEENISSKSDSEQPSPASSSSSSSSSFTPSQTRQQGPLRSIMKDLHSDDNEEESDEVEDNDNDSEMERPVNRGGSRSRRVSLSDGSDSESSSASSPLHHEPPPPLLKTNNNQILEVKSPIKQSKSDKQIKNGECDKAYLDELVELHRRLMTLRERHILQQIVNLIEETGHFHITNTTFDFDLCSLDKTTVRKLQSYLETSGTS
# HNF4A DNA FP – change in binding of human HNF4A to DNA, primary screen, biochemical, fluorescence polarization, FITC-DNA | Hepatocyte nuclear factor 4-alpha (Homo sapiens), P41235 | 1 h | activity change, % at 10 µM | 360,000 compounds, 0.3% hits | AID 1224865, 2016; in the data active = activity change above about 30%, passing the limit was not always enough;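 also: controls were the assay level and a saturating level of protein; the project sought stronger binding though the title names inhibitors; some compounds called inactive have numbers as strong as hits; positive values seem to mean higher polarization but the record does not say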
# FGF22 binding – binders of human FGF22 protein, primary screen, FGF22 synaptogenesis inhibitor project, biophysical, thermal shift, single point; 340,000 compounds, 1.5% hits; Fibroblast growth factor 22 (Homo sapiens), Q9HCT0; calls only at 9.99 µM; recombinant FGF22 thermal shift, SYPRO orange fluorescence; percent of sucrose octasulfate shift, DMSO zero;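 active = melting point raised past a set limit in the mean and every replicate; inconclusive = no clear call; three in four hits are not shown here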
# Target sequence (Q9HCT0 whole entry, looked up): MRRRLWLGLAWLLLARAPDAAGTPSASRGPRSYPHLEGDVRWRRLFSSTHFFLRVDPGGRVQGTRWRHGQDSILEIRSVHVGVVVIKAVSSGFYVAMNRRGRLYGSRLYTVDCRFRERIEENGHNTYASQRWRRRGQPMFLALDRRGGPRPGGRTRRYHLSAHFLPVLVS
# Ecoli growth – E. coli growth inhibition, primary screen, OD600; AID 1053175, 2014; 330,000 compounds, 0.21% hits; OD600 absorbance (no concentration beside the values); Escherichia coli growth, 23 h; active compounds read low;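 active = OD600 absorbance below the run mean of sample wells minus 3.6 SD, in any replicate, cut at about 0.56 in these data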;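 also: stock transfer was 300 nL into about 60 µL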
# Vif A3G – inhibitors of Vif binding to APOBEC3G peptide, primary screen, biochemical, TR-FRET, GST-Vif 1-94, biotin-A3G peptide, dose response retest (AID 1117319); TR-FRET GST-Vif / biotin-A3G peptide binding; higher % means a stronger effect; test concentration not given here; strong numbers were not always called active; 260,000 compounds, 0.57% hits; one-dose inhibition, %; IC50 in µM for titrated hits; Virion infectivity factor (Human immunodeficiency virus type 1 group M subtype B (isolate …;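 active = above the screen mean plus three standard deviations and confirmed in dose response; inconclusive = results disagree or hit not tested in dose response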;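 also: Vif residues 1-94 fused to GST binding biotinylated APOBEC3G peptide 110-148; 0% = full assay without inhibitor and 100% = GST in place of GST-Vif; retest series ran down from 100 µM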
# ALR inh – inhibitors of human ALR sulfhydryl oxidase, primary screen, biochemical, H2O2 detection, HRP-luminol luminescence, single point | 290,000 compounds, 3.8% hits | inhibition, % (concentration not given with the values) | FAD-linked sulfhydryl oxidase ALR (Homo sapiens), P55789 | purified ALR, DTT oxidation;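 active = mean and each replicate at 75% or more; inconclusive = only one of the two met; inactive = neither met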;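 also: stock transfer was 7.5 nL into about 7.5 µL; 0% = neutral wells and 100% = wells with inactivated enzyme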
# Target sequence (P55789 whole entry, looked up): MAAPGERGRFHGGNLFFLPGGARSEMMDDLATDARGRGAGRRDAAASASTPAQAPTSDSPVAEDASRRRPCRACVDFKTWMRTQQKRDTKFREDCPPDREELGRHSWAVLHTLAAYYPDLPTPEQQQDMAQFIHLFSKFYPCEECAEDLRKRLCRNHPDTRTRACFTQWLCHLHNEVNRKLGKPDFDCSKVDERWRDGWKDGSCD
# Ecoli rRNA inh OD600 – second read-out of Ecoli rRNA inh, no call of its own (marks repeat the call); OD600 change, %; measured here: OD600 growth;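 optical density of the mix in the first replicate; 0 = DMSO median and -100 = no signal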
# Ecoli rRNA inh RFP – also measured in Ecoli rRNA inh; calls as there; RFP signal change, %; measured here: RFP humanized mutant strains;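 first replicate; 0 = DMSO median and -100 = no signal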
# Starred values were filed as active, the others as inactive; i = inactive; ? = inconclusive; nt = not tested or not shown; & = joins results of further samples. This is a subset, so the mix of outcomes need not match the whole.
structure | Ecoli rRNA inh | Ecoli rRNA inh OD600 | Ecoli rRNA inh RFP | AF4-AF9 inh | HNF4A DNA FP | FGF22 binding | Ecoli growth | Vif A3G | ALR inh
Cc1nc(CN2CCN(S(=O)(=O)c3c(Cl)cc(Br)cc3Cl)CC2)cs1 | -22 | -26 | -2.7 | 4.2 | -38 | nt | 0.7 | -5% | nt
CCCCCCn1c(SCC(=O)c2c(N)n(C)c(=O)n(C)c2=O)nc2ccccc21 | nt | nt | nt | nt | -1.8 | nt | 0.76 | 64% | -10
CCN(CC)CCCNC(CC(=O)Nc1cccc([N+](=O)[O-])c1)C(=O)O (configuration not stated) | 10 | 3 | -9.0 | 0.5 | 1.6 | i | 0.7 | ? | 1
CCCNC(=O)N(C)C[C@@H]1Oc2cc(-c3ccccc3)ccc2S(=O)(=O)N([C@@H](C)CO)C[C@@H]1C | -6 | -8 | 0.6 | 1.8 | nt | i | nt | nt | nt
C[C@H]1CN([C@@H](C)CO)C(=O)c2cc(NS(=O)(=O)c3ccccc3)ccc2O[C@H]1CN(C)CC1CCCCC1 | 4 | -1 | 2.2 | -2.9 | nt | i | nt | nt | nt
COc1cccc(COC(=O)c2nn(-c3ccccc3)nc2N)c1 | 18 | 9 | 1.0 | 0.2 | 5.8 | nt | 0.69 | -20% | -11
O=C(CCCN1C(=O)/C(=C/c2ccc(F)cc2)SC1=S)Nc1ccc(C(=O)O)cc1 | 7 | 14 | 1.2 | -2.2 | -1.8 | i | nt | 0% | nt
Cc1cccc(C(=O)NCCCNC(=O)c2cccc(C)c2)c1 | 8 | 13 | 2.5 | -0.6 | -4.0 | i | 0.64 | -7% | 0
Cc1ccc(Cl)cc1N1CCN(S(=O)(=O)c2ccc3[nH]c(=O)ccc3c2)CC1 | -5 | -9 | 3.7 | 1.6 | -1.2 | i | 0.72 | nt | -4
Cc1nn(C)c(C)c1NC(=O)Nc1ccc(Cl)c(Cl)c1 | -52 | -75 | -27 | -4.5 | -0.3 | i | 0.63 | -9% | -4
Cc1ccc(OCC(=O)NN=C2c3ccccc3-c3ccccc32)cc1 | 6 | 10 | 6.0 | -3.8 | -1.9 | i | 0.75 | ? | -9
O=C(/C=C/c1ccc2c(c1)OCO2)c1ccc(F)cc1 | -6 | -9 | -15 | 2.1 | 4.9 | i | 0.79 | ? | 5
O=C1Nc2ccccc2C1=NN1CCCCCC1 | -6 | -4 | 5.1 | 6.9 | -2.0 | nt | 0.68 | -3% | nt
CCN(CC(=O)Nc1cc(Cl)ccc1C)C(=O)Cc1ccsc1 | -1 | 0 | -1.5 | 0.9 | -0.9 | i | 0.71 | -3% | nt
CCOC(=O)C1(C)CCCN1C(=O)c1cccc2ccccc12 (configuration not stated) | 2 | -3 | 0.3 | -0.7 | -2.9 | i | nt | nt | nt
COC(c1ccccc1)c1nnc(CCC(=O)NCc2ccc3ncccc3c2)o1 (configuration not stated) | 13 | 9 | 5.3 | -1.8 | -0.5 | i | 0.7 | 8% | nt
Cc1cc(C)c(-n2nnnc2SCC(=O)c2cc3ccccc3o2)c(C)c1 | 14 | 10 | 5.1 | -0.9 | 3.8 | i | 0.67 | 2% | nt
Cc1noc(C)c1NC(=O)N(C)C[C@@H]1Oc2ccc(NC(=O)Nc3ccc4c(c3)OCO4)cc2C(=O)N([C@@H](C)CO)C[C@H]1C | 5 | 2 | -0.2 | 2.5 | nt | i | nt | nt | nt
CN1CCN(c2ccc(Cl)cc2NC(=O)c2cccc(S(=O)(=O)N(C)C)c2)CC1 | 8 | 0 | 6.4 | 7.8 | 5.8 | i | 0.69 | 6%&-2% | -9
C[C@H](CO)N1C[C@H](C)[C@H](CN(C)Cc2ccccc2)Oc2ccc(NC(=O)CCC(F)(F)F)cc2C1=O | 3 | 6 | -1.7 | -2.2 | nt | i | nt | nt | nt
CO[C@H]1CN(C)C(=O)c2ccc(NC(=O)C3CC3)cc2OC[C@H](C)N(C(=O)c2ccncc2)C[C@H]1C | 3 | -1 | -0.7 | -0.6 | nt | i | nt | nt | nt
CC(C)(C)c1ccc(NC(=O)CN2C(=O)NC(C)(C3CC3)C2=O)cc1 (configuration not stated) | 3 | -1 | 0.9 | 5.5 | 1.5 | i | 0.63 | -14% | 0
NC1C=CC=C(C(=O)O)C1 (configuration not stated) | nt | nt | nt | -0.9 | 2.0 | i | 0.72 | nt | -8
NC(=O)c1ccc(N2CCN(c3ccccc3F)CC2)c([N+](=O)[O-])c1 | 0 | 11 | -2.6 | 1.2 | -0.9 | i | 0.7 | -1% | 14
Cc1ccccc1NC(=S)NC(=O)/C=C/c1ccco1 | 9 | 9 | 7.4 | 9.7 | 8.2 | i | 0.63 | nt | 48
Cc1ccc(OCC(=O)NCCNC(=O)c2ccncc2)cc1 | -4 | 7 | 0.3 | -8.4 | 1.8 | nt | 0.7 | nt | -4
CCCOC(=O)Nc1nc2ccccc2o1 | nt | nt | nt | nt | 8.4 | nt | 0.66 | 0% | nt
CO[C@H]1CN(C)C(=O)c2cc(NC(=O)C3CC3)ccc2OC[C@H](C)N(CC2CCOCC2)C[C@H]1C | 1 | 7 | 0.1 | -4.9 | nt | i | nt | nt | nt
CC(C(=O)NCC1CCCCC1)N1CCN(S(=O)(=O)c2cccs2)CC1 (configuration not stated) | -10 | -9 | -0.3 | -17 | -2.2 | i | 0.7 | 0% | nt
CS(=O)(=O)N(CC(=O)NC1CCCC1)c1ccc(Oc2ccccc2)cc1 | -23 | -28 | 2.1 | 3.0 | 6.9 | i | 0.72 | nt | 1
CSc1nnc(Cc2ccc3c(c2)OCO3)o1 | nt | nt | nt | nt | -3.0 | nt | 0.72 | 2% | 2
CSc1nc(NCCN(C)C)c2sc3nc(-c4ccco4)c4c(c3c2n1)CCC4 | nt | nt | nt | 7.4 | 9.4 | i | 0.65 | nt | nt
CCc1ccccc1NC(=O)c1cc(=O)c2ccccc2o1 | 4 | -7 | -2.3 | -0.6 | -4.6 | i | 0.67 | nt | -4
Cc1cc(C=O)sc1[B-](F)(F)F | 16 | 14 | 0.5 | -2.1 | -4.1 | i | nt | 1% | nt
OCCC1CN(Cc2ccc(Oc3ncccn3)cc2)CCN1C1CCCCC1 (configuration not stated) | 9 | 7 | -0.8 | 9.9 | 0.9 | i | 0.7 | 10% | -2
CCC(=O)Nc1ccc2c(c1)C(=O)N(C)C[C@H](OC)[C@@H](C)CN(Cc1cccnc1)[C@@H](C)CO2 | 1 | 1 | -0.5 | 0.0 | nt | i | nt | nt | nt
CCn1c(SCC(=O)N2CCCC2=O)nc2ccccc21 | -1 | 4 | -1.5 | -1.5 | 1.0 | i | nt | -6% | nt
COc1ccc(C(=O)OC(C)C(=O)NCC2CCCCC2)cc1S(=O)(=O)N1CCOCC1 (configuration not stated) | -3 | 11 | 1.9 | 9.1 | -1.3 | i | 0.7 | 10% | -3
O=C(NCc1ccco1)c1nn(-c2ccccc2)c(=O)c2ccccc12 | nt | nt | nt | nt | -1.7 | nt | 0.69 | -1% | -26
COCC(=O)Nc1ccc2c(c1)[C@@H]1C[C@@H](CC(=O)NCc3cccnc3)O[C@@H](CO)[C@@H]1O2 | -3 | 2 | -0.3 | -1.7 | nt | i | nt | nt | nt
COC(=O)[C@H](Cc1ccc(O)cc1)NC(=O)Cn1cnc2c(NCc3ccccc3)ncnc21 | 1 | -1 | 2.7 | -0.1 | -0.5 | i | 0.67 | -3% | nt
O=C(NS(=O)(=O)c1ccccc1[N+](=O)[O-])c1ccccc1 | 16 | 15 | 1.7 | -2.2 | 2.2 | i | 0.71 | -5% | -2
CC(C)NC(=O)N1CCCCN2[C@H](C1)[C@H](c1ccc(C#Cc3ccccc3F)cc1)[C@@H]2CO | -55 | -63 | -5.4 | -2.0 | nt | i | nt | nt | nt
CCc1ccc([C@@H]2CC=C(C(=O)O)[C@H](c3ccc(C)cc3)N2S(=O)(=O)c2ccc(C)cc2)cc1 | -24* | -0.4* | 8.0* | 0.4 | -2.5 | i | 0.67 | nt | nt
COc1ccc(CN(C)C[C@H]2Oc3ccc(NS(=O)(=O)c4ccc(OC)cc4)cc3C(=O)N([C@@H](C)CO)C[C@@H]2C)cc1 | 0 | 9 | -1.2 | -2.9 | nt | i | nt | nt | nt
CN1C(=O)COc2ccc(C(=O)c3ccccc3C(=O)O)cc21 | nt | nt | nt | nt | 1.7 | nt | 0.69 | 14% | -4
COc1cccc(Cn2c(NCC(C)C)nc3c2c(=O)n(C)c(=O)n3C)c1 | nt | nt | nt | nt | 0.0 | nt | 0.69 | 18% | 45
O=C(CNC(=O)c1ccccc1F)NCc1cccnc1 | 5 | 11 | -0.2 | -19 | 0.3 | i | 0.71 | nt | -8
CN(C)CCOC(=O)CC12CC3CC(C1)CC(CC(=O)OCCN(C)C)(C3)C2 | 18 | 11 | 0.6 | -0.6 | -0.9 | i | 0.66 | -4% | 0
O=C(NCCC(=O)N(Cc1ccco1)Cc1cccs1)c1ccc(Br)cc1 | -21 | -41 | -5.9 | 2.8 | 1.5 | i | 0.69 | -6% | 0
O=C(Cn1nc(C(=O)O)c2ccccc2c1=O)Nc1ccc(F)cc1F | 8 | 20 | 0.8 | -7.5 | 0.1 | i | 0.68 | nt | -5
COc1ccc(-n2nc(C(=O)NCC(=O)NCCCN3CC(C)CC(C)C3)c3ccccc3c2=O)cc1OC (configuration not stated) | 6 | 9 | 1.4 | 1.9 | 5.4 | i | 0.68 | nt | -1
Cc1ccc(CNC(=O)c2ccc(N3CCC4(CC3)CC(c3ccccc3)=NO4)c(NC(=O)c3cccc(C)c3)c2)cc1 | 9 | 13 | -1.8 | 0.0 | 3.1 | i | nt | nt | 4
Cc1onc(-c2ccccc2Cl)c1C(=O)N1CCCc2ccccc21 | -14 | -11 | 3.5 | 3.1 | -2.1 | i | 0.68 | 1% | -2
CC(C)(COC(=O)Nc1ccccc1)COC(=O)Nc1ccccc1 | -31 | -30 | -6.8 | -1.6 | -1.5 | i | 0.66 | 0% | 1
CCn1cc(C(=O)NC2CCCCCC2)c(=O)c2ccc(C)nc21 | 9 | 10 | -0.1 | -0.9 | 1.4 | i | 0.67 | nt | -3
COc1ccc(CC(NC(C)=O)C(=O)NC2CCN(S(=O)(=O)c3cccc4ccccc34)CC2)cc1OC (configuration not stated) | nt | nt | nt | nt | -3.1 | nt | 0.7 | 74% | -7
COc1cc2c(cc1OC)CN(C(=O)c1ccc(Br)o1)CC2 | 1 | 9 | 0.7 | 3.8 | 3.9 | i | 0.67 | 2% | nt
COc1ccc(NC(=O)c2coc(C)c2)cc1 | 4 | 4 | -0.2 | -8.0 | 0.8 | i | 0.64 | nt | -5

# Whole records as entered above. Values in the order: Ecoli rRNA inh	Ecoli rRNA inh OD600	Ecoli rRNA inh RFP	AF4-AF9 inh	HNF4A DNA FP	FGF22 binding	Ecoli growth	Vif A3G	ALR inh
# COc1ccc(NC(=O)c2coc(C)c2)cc1 as listed: 4	4	-0.2	-8.0	0.8	i	0.64	nt	-5
# CC(C)(COC(=O)Nc1ccccc1)COC(=O)Nc1ccccc1 as listed: -31	-30	-6.8	-1.6	-1.5	i	0.66	0%	1
# COc1ccc(-n2nc(C(=O)NCC(=O)NCCCN3CC(C)CC(C)C3)c3ccccc3c2=O)cc1OC (configuration not stated) as listed: 6	9	1.4	1.9	5.4	i	0.68	nt	-1

# Source: PubChem
